SARS PLpro yeast: qHTS of Yeast-based Assay for SARS-CoV PLP; S. cerevisiae expressing SARS-CoV PLpro, growth rescue; control for the full effect not named in the record; Potency, µM (top dose mostly 32.9 µM), for inactives: at the highest dose activity, positive = growth rescue; 330,000 tested, 0.19% active; AID 485353, 2010; note: 0% is about no effect; nearly all actives have a fitted effect of over 55% in size; growth read by luminescence after 48 h
NS1 inh: qHTS Assay for Inhibitors of Influenza NS1 Protein Function; S. cerevisiae slowed by influenza A NS1, growth recovery by OD600; Potency, µM (top dose mostly 46.1 µM), for the others: at the top dose activity, positive = more growth; 270,000 tested, 0.4% active; note: actives are rising curves; nearly all actives have a fitted effect of over 50% in size
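OD600 was taken as the measure of yeast growth restored by compound in an NS1-expressing S. cerevisiae strain. Cells had been washed out of glucose medium and diluted 1:100 into galactose -URA medium, pH 6.0.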
MARV entry inh: qHTS for inhibitors of binding or entry into cells for Marburg Virus; Potency, µM (doses to about 37.8 µM), without a hit: at the highest dose activity change, negative = inhibition, hits mostly inhibitors; Marburg virus pseudotyped entry inhibition, cell reporter; control for the full effect not named in the record; about a third of the inactives were read at about 46 µM; 300,000 tested, 1.8% active; active = well fitted inhibition curve with a large enough effect; inconclusive = small, poorly fitted or top-dose-only effect, or effect the other way; inactive = flat fitted curve, though single readings scatter; tested in HEK293 cells; about a fifth of its hits are not listed in these tables; note: % is set by controls: 0 for no effect and ±100 for the full control effect; luciferase read-out
StopGo reporter: High Throughput Screening for Foot and Mouth Disease Virus Antivirals; human cells with a luciferase reporter of 2A StopGo recoding; control for the full effect not named in the record; 410,000 tested, 1.2% active; Potency, µM (titrated, usually from 57.9 µM), for inactives: top-dose signal change, negative = less light; active = well fitted falling curve with a large enough effect; inconclusive = small, poorly fitted or top-dose-only effect; inactive = no such curve, though single readings can be large or run the other way; tested in HEK293T cells; note: % is set by controls: 0 for no effect and ±100 for the full control effect; nearly all actives have a fitted effect of over 45% in size; luciferase light after 4 h
Cruzain noTriton: qHTS Assay for Promiscuous and Specific Inhibitors of Cruzain (without detergent). AID 1476, 2009. 200,000 tested, 2.3% active. Potency, µM, without a hit: max response, negative = inhibition, hits mostly inhibitors. purified cruzain, Z-FR-AMC fluorescence, no detergent; active = well fitted curve in the direction sought with a large enough effect; inconclusive = small, poorly fitted or top-dose-only effect, or another doubt; inactive = no such curve, though single readings can be large; an effect the other way counts as inactive or inconclusive;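 note: plate controls were enzyme without inhibitor for no effect and buffer without enzyme for full effect; nearly all actives have a fitted effect of over 40% in size; top concentration of the series not given in the record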
Target sequence (P25779 123-467 limits assumed): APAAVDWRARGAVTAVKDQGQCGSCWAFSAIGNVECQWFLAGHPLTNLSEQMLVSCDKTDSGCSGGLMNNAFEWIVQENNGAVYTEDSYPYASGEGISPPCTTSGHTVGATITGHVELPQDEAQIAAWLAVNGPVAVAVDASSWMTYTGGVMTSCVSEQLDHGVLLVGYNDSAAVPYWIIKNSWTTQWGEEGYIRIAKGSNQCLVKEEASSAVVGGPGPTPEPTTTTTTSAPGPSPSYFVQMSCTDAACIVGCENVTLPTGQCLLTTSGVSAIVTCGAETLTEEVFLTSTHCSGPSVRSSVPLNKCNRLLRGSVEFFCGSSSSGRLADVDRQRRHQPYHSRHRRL
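Detergent-free condition (0.00005% Triton X-100) in acetate buffer pH 5.5 with DTT. 1.5 nM enzyme and compound were pre-mixed 15 min, then 2 uM Z-FR-AMC substrate added; reaction progress from fluorescence change between first and third reads (60 s).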
LASV entry inh: qHTS for Inhibitors of binding or entry into cells for Lassa Virus. Lassa virus pseudotype entry inhibition, cell reporter; control for the full effect not named in the record. Potency, µM (doses to about 37.9 µM), inactives show at the highest dose activity change, negative = inhibition, usual class: inhibitors. 300,000 tested, 1.2% active; active means well fitted inhibition curve with a large enough effect; inconclusive means small, poorly fitted or top-dose-only effect, or effect the other way; inactive means flat fitted curve, though single readings scatter; tested in HEK293 cells; note: % is set by controls: 0 for no effect and ±100 for the full control effect; nearly all actives have a fitted effect of over 50% in size; luciferase read-out
RE007 growth inh: qHTS Assay for Inhibitors of the HIV-1 protein Vpr; Potency, µM (highest dose often 92.2 µM), without a hit: at the highest dose activity change, negative = less growth; S. pombe RE007 Vpr strain, BacTiter-Glo ATP luminescence, 24 h; control for the full effect not named in the record; 360,000 tested, 0.21% active; AID 651644, 2012; active = well fitted falling curve with a large enough effect; inconclusive = small, poorly fitted or top-dose-only effect; inactive = no such curve, though single readings can be large or run the other way;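 note: % is set by controls: 0 for no effect and ±100 for the full control effect; nearly all actives have a fitted effect of over 50% in size; the assay follows cell death caused by Vpr and the record does not say whether a fall means rescue or toxicity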
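Fission yeast strain RE007, carrying one chromosomally integrated HIV-1 vpr copy, was seeded at OD 0.01 in PMG+AL medium with 23 nL pinned compound. After 24 h at 30 °C and 99% humidity, viability was read by BacTiter-Glo luminescence.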
Cruzain Triton: qHTS Assay for Promiscuous and Specific Inhibitors of Cruzain (with detergent). Cruzipain (Trypanosoma cruzi), P25779. Potency, µM, for the others: max response, negative = inhibition, most hits filed as inhibitors. 200,000 tested, 0.43% active. purified cruzain, Z-FR-AMC fluorescence, 0.01% Triton; active = well fitted curve in the direction sought with a large enough effect; inconclusive = small, poorly fitted or top-dose-only effect, or another doubt; inactive = no such curve, though single readings can be large; an effect the other way counts as inactive or inconclusive;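 note: plate controls were neutral wells for no effect and buffer without enzyme for full effect; nearly all actives have a fitted effect of over 40% in size; top concentration of the series not given in the record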
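Read-out: AMC fluorescence (360 nm excitation, 450 nm emission), four reads over 2 min, first-to-third difference used. Conditions: cruzain 1.5 nM, Z-FR-AMC 2 uM, pH 5.5 acetate, 5 mM DTT, 0.01% Triton X-100.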
Numbers without * were called inactive; ? = inconclusive; . = no result given; & = joins results of further samples; [ ] = dose if it differs, or a comment. Unless noted, calls come from the whole dose curve; as a rule, active means well fitted rising curve with a large enough effect; inconclusive means small, poorly fitted or top-dose-only effect; inactive means no such curve, though single readings can be large or run the other way. Potency is the fitted concentration of half-maximal effect.

SMILES | SARS PLpro yeast | NS1 inh | MARV entry inh | StopGo reporter | Cruzain noTriton | LASV entry inh | RE007 growth inh | Cruzain Triton
COc1cc(C(c2c(C)[nH][nH]c2=O)c2c(C)[nH][nH]c2=O)cc([N+](=O)[O-])c1O | 1.1% | . | 13.3%[46.1 µM] | -25.4% | . | ? | 7.8% | .
O=S(=O)(Nc1nccs1)c1ccc(NS(=O)(=O)c2c(F)cc(F)c(Cl)c2F)cc1 | 5.0% | . | -0.5% | 5.0% | . | 2.2% | 8.3% | .
COC(=O)C1=C(N)Oc2cc(C)n(Cc3cccnc3)c(=O)c2C1c1cccc(OC)c1OC (centres undefined) | 2.1% | -34.4% | 1.4% | -25.1% | -5.5% | -0.7% | 0.6% | 2.3%
Cc1nnc(SCc2ccccc2)[nH]c1=O | -0.8% | 3.4% | -1.0%[46.1 µM] | -3.7% | . | 5.4% | 0.0% | .
O=C(O)C1=C[C@@H](c2ccc(F)cc2)C[C@@H](OCCCCO)O1 | -5.9% | 2.3% | . | -10.5% | . | . | 4.5% | .
CC(C)c1ccc(N(C(=O)CNC(=O)c2ccco2)C(C(=O)NC2CCCC2)c2cccnc2)cc1 (centres undefined) | 5.3% | -23.1% | ? | -1.9% | . | -13.8% | -3.6% | .
CCOC(=O)C1Cn2c(nc3c(c2=O)C2(CCCC2)Cc2ccccc2-3)S1 (centres undefined) | -1.6% | 22.7% | -0.4% | ? | 12.4% | -16.7% | 2.0% | -15.9%
CCCCn1nnnc1NCc1ccc(C)cc1 | 9.7% | -0.8% | . | 15.6% | . | . | 2.5% | .
CCCC(=O)Nc1ccc(NCc2ccc(C)s2)cc1 | -2.7% | -17.5% | . | 35.4%[activator] | . | . | -25.0% | .
COc1ccccc1/C=C/C=N/n1c(-c2ccccc2)n[nH]c1=S | 0.6% | 9.4% | ? | 31.9%[activator] | . | ? | 22.2% | .
Cc1ccc(C)c(Cn2cnc3c(cnn3-c3ccc(F)cc3)c2=O)c1 | . | . | 2.6%[46.1 µM] | 0.0% | 17.4% | ? | . | -1.9%
COCCNc1ncnc2c1cnn2-c1cc(Cl)ccc1C | . | . | . | ? | -5.2% | 13.9%[46.1 µM] | . | -1.4%
COc1ccc(N2C3=[N+](CCCC3)CC2(C)O)cc1 (centres undefined) | -5.0% | -12.4% | 3.7% | -22.7% | 0.4% | 3.0% | -19.6% | 4.3%
CCn1c(SCC(=O)N2CCCCC2)nnc1-c1ccc(S(=O)(=O)N2CCN(C)CC2)cc1 | -0.3% | -5.6% | -9.8%&-9.8% | -2.4% | 9.9% | 25.7% | -13.2% | 5.3%
O=C(CSc1nc2c([nH]c3ccccc32)c(=O)n1-c1ccccc1)Nc1ccccc1F | . | . | . | -24.3% | -9.0% | 3.8%[46.1 µM] | . | -2.7%
CCOc1ccc(OCc2ccc(C(=O)NN)o2)cc1 | 0.5% | 8.0% | . | 19.9% | . | . | 11.7% | .
Cc1ccc(-c2c(C#N)c(N)n(-c3ccccc3)c(=O)c2C#N)cc1 | 1.8% | 14.1% | 0.2% | -1.2% | -7.3% | -3.9% | -2.9% | 0.6%
CC1=NN(c2ccccc2)C(=O)/C1=C\C=C\c1ccccc1 | -1.4% | -0.2% | ? | 22.4µM* | . | ? | 6.0% | .
O=C(c1cccc(S(=O)(=O)N2CCCCC2)c1)N1CCOCC1 | -0.9% | -0.6% | -3.2% | -6.0% | -4.8% | 7.6% | 2.6% | 1.4%
COc1cccc(-c2cc(C(=O)NCc3ccc(F)cc3)no2)c1 | . | . | -1.2%[46.1 µM] | 27.4% | -9.1% | 1.2%[46.1 µM] | . | -3.9%

Laid out differently: three of the compounds above.
The line under a structure holds: SARS PLpro yeast	NS1 inh	MARV entry inh	StopGo reporter	Cruzain noTriton	LASV entry inh	RE007 growth inh	Cruzain Triton
CCn1c(SCC(=O)N2CCCCC2)nnc1-c1ccc(S(=O)(=O)N2CCN(C)CC2)cc1
  -0.3%	-5.6%	-9.8%&-9.8%	-2.4%	9.9%	25.7%	-13.2%	5.3%
O=C(CSc1nc2c([nH]c3ccccc32)c(=O)n1-c1ccccc1)Nc1ccccc1F
  .	.	.	-24.3%	-9.0%	3.8%[46.1 µM]	.	-2.7%
CCOc1ccc(OCc2ccc(C(=O)NN)o2)cc1
  0.5%	8.0%	.	19.9%	.	.	11.7%	.

(continued)
SMILES | SARS PLpro yeast | NS1 inh | MARV entry inh | StopGo reporter | Cruzain noTriton | LASV entry inh | RE007 growth inh | Cruzain Triton
Cc1ccc(C(=O)Nc2cccc(NC(=O)c3ccc(C)c([N+](=O)[O-])c3)n2)cc1[N+](=O)[O-] | -2.7% | -1.0% | ? | ? | . | ? | 6.7% | .
Cc1ccc(S(=O)(=O)N2CCN(Cc3cc(Br)ccc3O)CC2)cc1 | . | . | . | -29.4% | 23.4% | -29.4%[46.1 µM] | . | -6.3%
NC(=O)c1ccc(NC(=O)COC(=O)c2c[nH]c3ccccc23)cc1 | 0.4% | . | ? | 6.1% | . | ? | -4.6% | .
COC1CCN(C(=O)C2CCC(=O)N(C3CCCCCC3)C2)CC1 (centres undefined) | -0.6% | 9.1% | . | 32.3%[activator] | . | . | -12.1% | .
CCC1C(C#N)=C(SC)NC2=C1C(=O)CC(C)(C)C2 (centres undefined) | -0.3% | 8.0% | -6.0% | -12.1% | 0.8% | -20.2% | -12.7% | -3.6%
O=C(CN1C(=O)C2C3CC(C(Br)C3Br)C2C1=O)N1CCOCC1 (centres undefined) | ? | 5.6% | 15.1% | -17.1% | 25.9% | 2.6% | 0.9% | -1.5%
CC1CCCCN1CCn1c(=S)[nH]c2ncccc2c1=O (centres undefined) | 3.9% | 5.3% | 4.9% | -7.2% | -1.4% | -0.9% | 9.1% | -2.7%
O=C(Cn1nc(CNc2ccc(Cl)cc2)[n+]2c1CCCCC2)c1ccccc1 | 12.1% | 3.2% | 11.7% | -4.4% | -0.7% | -0.5% | -8.9% | -2.5%
O=C(NCc1ccccc1)N1CCN(c2ccccc2F)CC1 | 0.5% | -7.4% | -0.1% | -9.4% | 0.4% | ? | -12.6% | -1.9%
N#CCN1C(=S)N=C(Nc2cccc(Cl)c2)C12CCCCC2 | 15.5% | ? | ? | 0.0% | 8.0% | -2.4% | 4.6% | 5.2%
COc1ccc(-c2cc(C(=O)N3CCCCCC3)c3ccccc3n2)cc1 | 6.0% | . | -10.6% | 21.5% | . | 16.6% | -6.6% | .
CCN(CCNC(=O)C1CCN(S(=O)(=O)c2cccc3cccnc23)CC1)c1ccccc1 | -4.0% | ? | 1.4% | -26.2% | -1.9% | . | -0.7% | 0.6%
CCC1C(=O)NCCN1C(=O)c1ccc(OC)c(OC2CCN(C(C)=O)CC2)c1 (centres undefined) | -5.5% | -6.3% | 27.2% | 9.4% | . | -0.7% | 18.0% | .
COC(=O)c1cccc2c1-c1ccccc1/C2=N/O | -12.1% | -118.9% | -24.4%[46.1 µM] | ? | -7.6% | 16.2% | ? | -9.9%
c1cc2c(cc1-n1cnnn1)OCO2 | 1.6% | 4.6% | -1.1%[46.1 µM] | -7.6% | . | 15.2%[46.1 µM] | 2.8% | .
CCc1nnc(NC(=O)C(=O)NCCOC(=O)c2ccccc2)s1 | -0.9% | -5.6% | 1.5% | . | -5.3% | 12.2% | -4.9% | 2.8%
COc1ccc(NC(=O)N2C3CCCC2CC(NC(=O)C2CC2)C3)cc1 (centres undefined) | 7.9% | -3.0% | 4.2%[46.1 µM] | 9.9% | . | . | 8.2% | .
Cc1c(C)n(C(=O)CN2CCN(c3ccccc3)CC2)c2ccccc12 | 10.9% | -15.7% | -2.3% | -28.9% | 6.3% | 5.9% | ? | -9.8%
O=C(Cn1cnc2ccccc2c1=O)Nc1nnc(SCc2ccccc2)s1 | -7.0% | 8.1% | 0.2% | . | -26.9% | 2.8% | 5.7% | 5.3%
COc1ccc(C)cc1NC(=O)C(OC(=O)CNC(=O)c1cccc(F)c1)c1ccccc1 (centres undefined) | 19.1% | -6.8% | -14.5% | ? | 12.6µM* | -7.1% | 0.9% | ?
COc1cccc(C(=O)NC2CCN(C(=O)N3CCCCC3)CC2)c1 | 8.1% | -7.0% | -10.1% | 27.7% | 12.3% | 27.2% | 4.2% | 3.0%
CC(=O)N(Cc1ccc(Br)cc1)c1cccc(C)c1C | -1.4% | -33.6% | ? | 0.0% | . | -19.5% | 41.7% | .
CSc1ncccc1C(=O)OCc1ccc(Br)cc1 | -5.3% | . | -1.9%[46.1 µM] | 23.9% | . | ? | 2.2% | .
NC1=NC[C@H](Cc2ccc(O)cc2)N1CCc1cccc2ccccc12 | -2.0% | 16.0% | . | -20.4% | . | . | -2.4% | .
COC(=O)c1ccccc1NC(=O)CNCCc1ccc(OC)c(OC)c1 | 11.7% | -16.4% | -2.9%[46.1 µM] | -15.1% | . | -6.9%[46.1 µM] | -9.6% | .
COc1ccc(C)cc1NC(=O)c1ccc2c(c1)nnn2C1CCCC1 | . | . | . | -20.6% | -8.4% | 0.8%[46.1 µM] | . | -3.6%
CN(CCc1ccccn1)c1ccc([N+](=O)[O-])cn1 | 2.0% | 4.4% | 6.8% | -13.2% | . | 2.7% | 1.5% | .
CCCN(CC(=O)Nc1ccc(F)c(F)c1F)C(=O)Cn1c(=O)cnc2ccccc21 | 1.5% | . | 3.0% | -6.3% | . | -5.3% | 6.1% | .
Cc1cc(NC(=O)CSC2=NCCS2)no1 | -0.4% | -4.7% | 2.2% | 4.4% | -1.6% | -1.1% | 4.9% | 3.6%
CCCN1CNC(=S)N(c2ccc(C)cc2C)C1 | -1.0% | 4.5% | -17.1%[46.1 µM] | -7.1% | . | 7.6% | -1.2% | .
COc1ccc(C)c2sc(NC(=O)c3cccc(N4C(=O)CCC4=O)c3)nc12 | -7.9% | 9.2% | . | -16.1% | . | . | -11.8% | .
O=C(Nc1cccnc1)c1scc2c1OCCO2 | 16.0% | -3.6% | 24.1% | 19.8% | -8.4% | 24.5% | 11.5% | 0.4%

Source: PubChem
